High-throughput results deposited in PubChem by Fisher Drug Discovery Resource Center.
NPYLR7 agonist = agonists of mosquito NPYLR7 receptor, primary screen, cell-based, Aedes aegypti, calcium fluorescence, mosquito biting behavior; HEK293T NPYLR7/Galpha15, GCaMP6s calcium fluorescence; 0.15% of 270,000 active; Aedes aegypti neuropeptide Y-like receptor 7 (NPYLR7); activation, % at 10 µM; in the data active means activation above about 40%;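 further: 0% = vehicle and 100% = reference agonist at the receptor; some compounds past the cut are filed as inactive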
NPYLR7 agonist max-min = further read-out of NPYLR7 agonist, marked with its call; activation, %; measured here: Max-Min RFU normalised activation; some inactives read as strong as hits;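 span of the calcium signal over five minutes; 0% = vehicle and 100% = native peptide agonist; compound fluorescence can raise it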
* marks the source's active call; other numbers are inactive results; & = joins results of further samples.

SMILES | NPYLR7 agonist | NPYLR7 agonist max-min
CCCCC(=O)NCc1cccc(-c2ncc(-c3cc(OC)ccc3OC)[nH]2)c1 | -1 | -1
O=C(COc1c(Cl)cc(Cl)cc1Cl)NC1CCS(=O)(=O)C1 (stereo unspecified) | -4 | -7
O=C(CCc1nnc(CCc2ccccc2)o1)NCc1ccc(C(F)(F)F)cc1 | 1 | -2
CN=c1scc(-c2cccs2)n1/N=C\c1ccco1 | -1 | -2
CN1C(=O)NC(c2cccc(OCc3ccccc3)c2)C2=C1CN(CCc1ccccc1)C2=O (stereo unspecified) | 8 | 13
CCc1nccn1CCC(=O)N1CC[C@@]2(O)CCCC[C@H]2C1 | 6 | 7
CCCn1cc(C(=O)NCc2sccc2C)c(C)n1 | 17 | 0
CN(C)C(=O)Oc1ccc(-c2c[n+]3cc(NC(=O)c4ccccc4)ccc3n2C)cc1 | 9 | 11
O=C(NCc1ccc2c(c1)OCO2)c1csc(CSc2nnc(-c3cccnc3)n2-c2cccc(Cl)c2)n1 | 8 | 0
CN(Cc1cc(C(C)(C)C)n[nH]1)C(=O)c1cc(=O)n(C)c(=O)n1C | 13 | 12
Cn1ccn2ncc(C(=O)NCCN3CCc4ccccc4C3)c12 | 2 | -1
Cc1cccc(COn2cccc(C(=O)Nc3cccc([N+](=O)[O-])c3)c2=O)c1 | 2 | 15
O=C(CCCc1nc(-c2ccco2)no1)NC[C@H]1C[C@H]2C=C[C@H]1C21CC1 | 1 | -3
Cn1ncc2c(N3CCCCC3)nc(NCc3ccccc3)nc21 | 0 | -3
COc1ccccc1N1C(=O)CC(N2CCN(Cc3ccccc3)CC2)C1=O (stereo unspecified) | -6 | -7
CN(C)CCCN1C(=O)C(=O)C(=C(O)c2ccccc2)C1c1ccc([N+](=O)[O-])cc1 (stereo unspecified) | 11 | 7
CCOC(=O)CCc1c(C)nc2ncnn2c1N1CCN(C(=O)c2ccoc2)CC1 | 34 | 16
O=S(=O)(c1ccc(OC(F)F)c(Cl)c1)N1CCCCC1C1OCCO1 (stereo unspecified) | 0 | -5
CN(Cc1csc(-c2ccccc2)n1)C(=O)c1cn(-c2ccccc2)nn1 | 5 | 2
OC(CN1CCN(c2ccccc2Cl)CC1)c1cccc(F)c1 (stereo unspecified) | 1 | 0
CC(C)COc1nc(-c2cccc(C(F)(F)F)c2)n(-c2ccc(NC(=O)CCCl)cc2)n1 | 11 | 8
O=[N+]([O-])c1ncccc1Oc1nc(-c2cccnc2)nc2sc3c(c12)CCC3 | 3 | 6
Cc1cc(=O)[nH]c(NN=Cc2ccc(C(C)(C)C)cc2)n1 | -7 | -9
CCN1CCCN(CC(=O)Nc2cc(C(F)(F)F)cc(C(F)(F)F)c2)CC1 | -1 | 41
C=C(C)N/N=C1\NC(=O)C(CC(=O)Nc2ccc(C)c(C)c2)S1 (stereo unspecified) | 3 | 1

In the list so far, two have two or more sulfur atoms.
SMILES | NPYLR7 agonist | NPYLR7 agonist max-min
CN=c1scc(-c2cccs2)n1/N=C\c1ccco1 | -1 | -2
O=C(NCc1ccc2c(c1)OCO2)c1csc(CSc2nnc(-c3cccnc3)n2-c2cccc(Cl)c2)n1 | 8 | 0

Following part
SMILES | NPYLR7 agonist | NPYLR7 agonist max-min
COc1ccc(C2SCC(=O)N2CC(=O)N2CCOCC2)cc1OC (stereo unspecified) | 22 | 12
CN1CCCC2(CC1)CCN(C(=O)CCNC(=O)c1ccc(F)cc1)CC2 | 7 | 6
COc1ccccc1CN(C)C(=O)Cn1c(=O)c2c(ncn2C)n(C)c1=O | -2 | -2
CCCCc1nc(Cl)c(CN2CCCN3CCC[C@H]3C2)[nH]1 | 12&18 | 6&10
CC(NC(=O)NCC(O)C1CC1)c1ccc(-c2ccncc2)cc1 (stereo unspecified) | -1 | -2
COc1ccc(C(=O)NCC2CCN(c3nc(Cc4ccc(C)cc4)ns3)CC2)c(OC)c1 | 16 | 18
C=CCN1C(=O)C(=Cc2ccc(C(=O)OC)cc2)SC1=S | 0 | 7
O=C1C2C3C=CC(C3)C2C(=O)N1c1ccccc1O (stereo unspecified) | 20 | 9
Cc1ccccc1-n1ncc(C(C)NC(=O)c2scc3c2OCCO3)c1C (stereo unspecified) | 13 | 0
COc1ccc(-c2c(-c3ccc(OCCN4CC(C)OC(C)C4)cc3O)n[nH]c2C)cc1OC (stereo unspecified) | -1 | -5
COc1ccc(OCc2cc(C(=O)N3CCN4CCCC4C3)no2)c(Cl)c1 (stereo unspecified) | 1&-1 | -4&-3
Cc1ccc(CNC(=O)N(C)CCc2cccs2)cn1 | 12 | 6
Cc1cc(C)c(C)c(S(=O)(=O)Nc2ccc(O)cc2)c1C | 5 | 4
Cc1cccc(N=Cc2nc(-c3cccc4ccccc34)oc2O)c1 | -1 | -9
CC(C(=O)NCc1ccccc1F)N(C)CC1CCN(Cc2ccccc2)C1 (stereo unspecified) | -1 | -2
CO/N=C(\C(=O)NC1C(=O)N2C(C(=O)O)=C(CSc3nnnn3C)CSC12)c1csc(N)n1 (stereo unspecified) | -8 | 3
COCCNC(=O)c1coc(CN(Cc2cccc(OC)c2)Cc2cccc(C(F)(F)F)c2)n1 | -5 | -3
COc1ccccc1-n1ncc2c(C(C)C)nnc(SCC(N)=O)c21 | -10 | -17
COc1ccc2cc(C(=O)Nc3ccc(C)cc3)c(=N)oc2c1 | 0 | 0
O=C(NC(C(=O)NC1CC1)C1CCN(C(=O)CCc2ccccc2)CC1)c1ccc(F)cc1 (stereo unspecified) | 5 | 3
CCOC(=O)c1c(OCC)[nH]c2c1cc(O)c1ccccc12 | 2 | -1
Cc1ccc(C(CC(=O)NC2CCN(Cc3ccccc3)CC2)c2cn(C)c3ccccc23)cc1 (stereo unspecified) | 1 | 0
CCCCCCCSc1nnc2[nH]c(=O)cc(N)n12 | 6 | 6
COc1ccc(CN(C)C(=O)CCc2nc(-c3ccccc3C)no2)c2cccnc12 | -6 | -9
CC12CC(Br)C(CC1=O)C2(C)C (stereo unspecified) | -9 | -10

New compounds follow:
SMILES | NPYLR7 agonist | NPYLR7 agonist max-min
CC(C)NC(=O)[C@@]1(OCc2ccc(C#N)cc2)CC(OCc2ccc(C(F)(F)F)cc2)[C@H](O)[C@H](O)C1 (stereo partly specified) | 6 | 9
Cc1c(C(=O)N2CCN(C(C)c3ccccc3)CC2)oc2ccccc12 (stereo unspecified) | 34 | 18
CN1CCCc2cc(C(C#N)N3CCOCC3)ccc21 (stereo unspecified) | -6 | -6
O=C(NCCn1ncc2c(=O)n(Cc3cccc([N+](=O)[O-])c3)cnc21)c1ccc(F)cc1F | -7 | -12
COc1ccc(OCC(=O)Nc2cccc(S(N)(=O)=O)c2)c(C=O)c1 | 4 | 4
Nc1nnc(SCc2ccc(F)cc2)s1 | 27&3 | 33&7
CC1(C(=O)NS(=O)(=O)c2cccs2)CCN1C(=O)c1ccco1 (stereo unspecified) | 7 | 5
CCc1[nH]n(-c2ccc(Cl)c(Cl)c2)c(=O)c1C1=C(N(CC)CC)C(=O)N(c2cc(C)ccc2OC)C1=O | -6 | -2
CCN(CC)CCN(C)C1CCCCCC1 | -12 | -17
CC(=O)c1ccc(Oc2cc(C(C)C)nc(SCc3cccc(C(F)(F)F)c3)n2)cc1 | 0 | 11
COc1ccccc1CNC(=O)CN1CCc2ccccc2C1 | 5 | 3
CCSc1nnc(NC(=O)c2cc(Cl)ccc2OC)s1 | -8 | -12
CC(C)c1nnsc1CNC(=O)CN1CCOc2ccccc2C1 | 1 | 1
CSCC(=O)N1CCCC(Nc2ccccc2)C1 (stereo unspecified) | 2 | -1
Cc1c(C(=O)NC(C)c2cccc3ccccc23)cnc2c(-c3cccs3)cnn12 (stereo unspecified) | 0 | 0
COc1cccc(C(=O)N2CCN(Cc3nc[nH]c3C)CC2)c1 | 3 | 2
Cc1ccc(C2C(=C(O)c3ccc(Cl)cc3)C(=O)C(=O)N2CCN2CCOCC2)cc1 (stereo unspecified) | 0 | 5
O=c1[nH]nc(-c2ccccc2)c2c1Nc1nncn1C2c1ccccc1 (stereo unspecified) | 3 | 41
COc1cc(OC)cc(N2CCN(C(=O)CCc3ccccc3)C(C)C2=O)c1 (stereo unspecified) | 9 | 0
Cc1ccc(NC(=O)Cn2nc3ccc(SC4CCCCC4)nn3c2=O)cc1C | -3 | -8
COCCCN(CC(=O)N(CCc1ccc(OC)c(OC)c1)Cc1sccc1C)S(=O)(=O)c1ccc(Cl)c([N+](=O)[O-])c1 | 16 | 19
COc1cc(/C=C2\Oc3c(ccc4c3CN(CC3CCCO3)CO4)C2=O)cc(OC)c1OC (stereo unspecified) | 74* | 68*
N#Cc1cccc(CN2C(=O)C3(SCCN3C(=O)c3cccc(Cl)c3)c3ccccc32)c1 (stereo unspecified) | 3 | 9
COc1cc(-c2ccc(C)s2)cc2c1OCCN(Cc1cnn(C)c1)C2 | 5 | 1
NC(=O)C(=O)N/N=C\c1ccc([N+](=O)[O-])o1 | -15 | -22

Quoted at random: 4 entries already listed, in no set order.
SMILES | NPYLR7 agonist | NPYLR7 agonist max-min
Cc1c(C(=O)N2CCN(C(C)c3ccccc3)CC2)oc2ccccc12 (stereo unspecified) | 34 | 18
CCSc1nnc(NC(=O)c2cc(Cl)ccc2OC)s1 | -8 | -12
Nc1nnc(SCc2ccc(F)cc2)s1 | 27&3 | 33&7
Cc1ccc(NC(=O)Cn2nc3ccc(SC4CCCCC4)nn3c2=O)cc1C | -3 | -8

Going on with the list.
SMILES | NPYLR7 agonist | NPYLR7 agonist max-min
CCOC(=O)c1c(C)n(-c2ccc(N(CC)CC)cc2)c2c1cc(O)c1ccccc12 | 2 | 2
CC1=CC[C@@H]2CN(C(=O)c3sc(C(C)C)nc3C)C[C@@H]2C1 | 7 | 7
Cc1cc(C(C)(C)C)cc(C)c1S(=O)(=O)N1CCN(C(=O)c2nccnc2N)CC1 | -2 | -3
CCCCN(C(=O)c1ccn(C)c(=O)c1)C1CCCC1 | 25 | 19
Oc1oc(-c2ccccc2F)nc1C=Nc1ccccc1Cl | -3 | -8
Clc1ccc2oc(C=Cc3ccc4c(c3)OCO4)nc2c1 | -5 | -10
CC(=O)c1c(C)[nH]c(C(=O)COC(=O)CSCc2c(C)noc2C)c1C | 3 | 7
O=C(c1csc(Nc2ccc(OC(F)F)cc2)n1)N1CCCC1 | -5 | -8
Cc1nn(C)c(C)c1CCC(=O)N1CCCC2(CC1)CN(C)C(=O)O2 (stereo unspecified) | 11 | 6
CCCCCCN=C(NC(=O)c1ccc(Cl)c(Cl)c1)OCCC | 4 | 16
Cc1cc(C)c2c(CC(=O)NCc3cccnc3N3CCOCC3)coc2c1 | 7 | 8
CC(C)c1ccc(OCC(=O)Nn2cnc3c(cnn3-c3ccccc3)c2=O)cc1 | 1 | -1
CCc1cccc(OCc2nc(C(=O)O)cs2)c1 | 0 | 5
CC(C)CN(C(=O)CN1C(=O)NC(C)(c2ccc(Cl)cc2)C1=O)C1CCS(=O)(=O)C1 (stereo unspecified) | 0 | -2
FC(F)Sc1ccc(NC(=S)NN=CC2CC=CCC2)cc1 (stereo unspecified) | 0 | 24
CC(C)(C)NC(=O)CSc1n[nH]c(-c2ccncc2)n1 | 5 | 1
Cc1ccsc1C(=O)N1CCn2nc(C(=O)NCc3ccccn3)cc2C1 | 13 | 6
CN1CCC(c2n[nH]c(=O)n2CCC(=O)O)CC1 | 3 | 2
COCCOc1nc(-c2ccc(F)cc2)n(-c2ccc(NC(=O)Nc3ccc(F)cc3F)cc2)n1 | -1 | 0
COc1ccc2[nH]c(C(=O)N3CCC4(CCNC4=O)CC3)cc2c1 | 4 | 6
CCOC1CC(NC(=O)NCCCc2c(C)noc2C)C12CCC2 (stereo unspecified) | 2 | 0
CN(C(=O)CSCC(=O)Nc1ccc(Cl)c(Cl)c1)C1CCCCC1 | 4 | 3
CC(Oc1ccc(F)cc1Cl)c1nnc(-c2ccccc2)o1 (stereo unspecified) | 1 | -1
COc1ccc(C(=O)N2CCN(C(=O)CCCSc3nnc(-c4ccco4)n3-c3ccc(C)cc3)CC2C)c(OC)c1 (stereo unspecified) | 11 | 5
CNC(=O)NC(=O)CNc1ccccc1-n1cncn1 | 10 | 5

3 structures from above, ordered by length of the SMILES, ascending:
SMILES | NPYLR7 agonist | NPYLR7 agonist max-min
CCc1cccc(OCc2nc(C(=O)O)cs2)c1 | 0 | 5
CCCCN(C(=O)c1ccn(C)c(=O)c1)C1CCCC1 | 25 | 19
COc1ccc(C(=O)N2CCN(C(=O)CCCSc3nnc(-c4ccco4)n3-c3ccc(C)cc3)CC2C)c(OC)c1 (stereo unspecified) | 11 | 5

The main list resumes; the four compounds before the break are reprinted first.
SMILES | NPYLR7 agonist | NPYLR7 agonist max-min
CN(C(=O)CSCC(=O)Nc1ccc(Cl)c(Cl)c1)C1CCCCC1 | 4 | 3
CC(Oc1ccc(F)cc1Cl)c1nnc(-c2ccccc2)o1 (stereo unspecified) | 1 | -1
COc1ccc(C(=O)N2CCN(C(=O)CCCSc3nnc(-c4ccco4)n3-c3ccc(C)cc3)CC2C)c(OC)c1 (stereo unspecified) | 11 | 5
CNC(=O)NC(=O)CNc1ccccc1-n1cncn1 | 10 | 5
Cc1nc(N2CCC(C(=O)N3CCc4ccccc4C3)CC2)nc2cc(S(C)(=O)=O)ccc12 | 13 | 13
COC(=O)c1ccc2c(c1)CC(CNC(=O)C(C)Oc1ccccc1)O2 (stereo unspecified) | -1 | -3
COc1ccccc1C1=NOC(CN(Cc2ccc(F)cc2)C(=O)NC(C)C)C1 (stereo unspecified) | 19 | 24
c1nc(C2CCNCC2)cc(N2CC3C[C@@H]4CC2C[C@H](C3)C4)n1 | 2 | 1
CN(C)S(=O)(=O)NCC1CC(=O)N(c2ccc(F)cc2)C1 (stereo unspecified) | 4 | 6
COc1cccc2cc(CNC(C)c3ccc(F)c(F)c3)oc12 (stereo unspecified) | 22 | 31
CNC(=O)C1(C(=O)NC(C)c2ccc(Br)cc2)CCC1 (stereo unspecified) | 4 | 3
CCOC(=O)C1=C(O)C(=CC2C(=O)CCCC2=O)N=C1C | 4 | 1

Only part of the results is shown (hit frequency here may not be typical).
